Screens deposited in PubChem by Broad Institute.
Tgondii IFNg: T. gondii growth inhibition with IFN-gamma, primary screen, cell-based. Toxoplasma gondii growth in IFN-gamma-treated host cells; hits give low values; reference of the scale not given here. activity change, negative = inhibition, %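 (about 20 µM by stock and volumes)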. 3.8% of 69,000 active. AID 1259416, 2018;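 active = below -70%; inconclusive = fit judged invalid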;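 also: host cells are HeLa cells infected with Toxoplasma gondii; parasite growth read as luciferase light; one replicate is shown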
Active calls of the source: *; i = inactive; ? = inconclusive; & = joins results of further samples.

SMILES	Tgondii IFNg
CC(=O)N1CC[C@H](OCc2csc(C)n2)[C@@H](Cc2ccccc2)C1	57
CCCCS(=O)(=O)N1CCc2ncc(Cn3cccn3)n2CC1	-5
CCn1nccc1C(=O)N1CCC(c2n[nH]c(=O)n2-c2ccccc2)CC1	93
O=C(c1ccc2c3c(cccc13)CC2)C1CCCN(Cc2cccc(OCCO)c2)C1 (stereo unspecified)	-33
Cc1cc2nccc(C3CCC(CNC(=O)c4cc(C(C)(C)C)nn4C)CC3)n2n1 (stereo unspecified)	-23
CN1CC2(CCN(C(=O)c3cc(=O)n(-c4ccccc4)[nH]3)C2)OC1=O (stereo unspecified)	-1
Cc1cccc(-c2nc(CCNC(=O)Cc3ccc(Cl)cc3)cs2)c1	i
O=C(NC1CCCC1)[C@@H]1[C@@H](CO)[C@@H]2Cn3c(cccc3=O)[C@H]1N2C(=O)CC1CC1	5
CCOC(=O)c1[nH]c(=O)[nH]c1CN1[C@@H]2CC[C@H]1CN(C)C(=O)C2	5
O=C1NCC2(CCCN(C(=O)C3CCN(Cc4ccco4)CC3)C2)O1 (stereo unspecified)	-2
C[C@H]1CN([C@@H](C)CO)C(=O)c2cccc(NC(=O)Nc3ccc(F)cc3)c2O[C@H]1CN(C)S(=O)(=O)c1ccc(Cl)cc1	-2
CC(C)Cc1cc(C(=O)N2CCCC2Cn2cccn2)on1 (stereo unspecified)	31
Cc1cccc(CNC2=NCCNC23CCN(S(=O)(=O)c2ccc(C)cc2C)CC3)c1	-2
CCOc1ccccc1NC(=O)c1nc(Nc2ccccc2)c2ccccc2n1	-82*
C=CCN1CCN(C)C2(CCN(C(=O)c3cnc[nH]3)CC2)C1=O	0
Cc1cc(C)n(CC(C)NCCN(C)S(C)(=O)=O)n1 (stereo unspecified)	4
Cn1cc(C(=O)N2CCC(Cc3nn(C)cc3C(=O)NCc3ccccc3)CC2)cn1	-11
CC(C)C(NC(=O)COc1ccc2nsnc2c1)c1cccs1 (stereo unspecified)	-40
COc1ccc(S(=O)(=O)N(C)C[C@@H]2Oc3ccc(NC(=O)Nc4ccc(C(F)(F)F)cc4)cc3C(=O)N([C@H](C)CO)C[C@H]2C)cc1	-75*
Fc1ccc(Nc2nc(SCc3ccc(Cl)cc3)nc3ccccc23)cc1F	-21
Cc1cc(F)c(Nc2ncnc3cc(OCc4ccccc4)ccc23)cc1O	-77*
CNC[C@H]1OCCCC[C@H](C)Oc2ccc(NS(=O)(=O)c3ccc(F)cc3)cc2C(=O)N([C@@H](C)CO)C[C@H]1C	23
O=c1n(CCCn2cccc2)nc(C2CCNCC2)n1-c1ccccc1	-8
CCc1oc2c(Cl)cc(-n3cnnc3)cc2c1C	-85*
O=C(O)CNc1ccccc1C(=O)NCCc1cccc(F)c1	121

Taken from the results shown (2 entries):
SMILES	Tgondii IFNg
CCOc1ccccc1NC(=O)c1nc(Nc2ccccc2)c2ccccc2n1	-82*
C=CCN1CCN(C)C2(CCN(C(=O)c3cnc[nH]3)CC2)C1=O	0

New compounds follow.
SMILES	Tgondii IFNg
O=C(C[C@@H]1CC[C@@H](NC(=O)CN2CCOCC2)[C@@H](CO)O1)NC1CCC1	-38
CCc1ccc(S(=O)(=O)N2CC3CCC2C3Oc2ccccn2)cc1 (stereo unspecified)	-23
CC(=O)N1CCc2c(nc(N(C)C)nc2N(C)CCCn2cccn2)C1	9
Cc1ccc(S(=O)(=O)N2CC[C@H]3[C@@H](CO)N(C)c4ccc(-c5ccccc5F)cc4[C@H]32)cc1	-38
CCOc1ccccc1-c1nccn1-c1cnc2ccccc2c1	3
OC1(CC#CCN2CCC(c3ccccc3)C2)c2ccccc2-c2ccccc21 (stereo unspecified)	-52
Cc1noc(C)c1NC(=O)Nc1ccc2c(c1)C(=O)N([C@@H](C)CO)C[C@H](C)[C@@H](CN(C)S(=O)(=O)c1ccc(F)cc1)O2	14
COc1ccccc1CNC(=O)C[C@@H]1CC[C@@H]2[C@H](COC[C@H](O)CN2Cc2ccc3c(c2)OCO3)O1	-22
Cc1ccc(Cl)cc1NC(=O)N1CCN(Cc2nc(-c3cccc(Cl)c3)oc2C)CC1	-3
CCC1c2cccn2CCN1CC(=O)NCc1ccc(C(=O)OC)o1 (stereo unspecified)	-8
CCOC(=O)NC(Nc1nc2ccccc2s1)(C(=O)OCC)C(F)(F)F (stereo unspecified)	37
Cc1ccc(C(=O)NC(C)c2ccccc2)cc1 (stereo unspecified)	-5
COC(=O)C[C@H]1CC[C@@H]2[C@H](COC[C@@H](O)CN2S(=O)(=O)c2cn(C)cn2)O1	8
COCC(=O)N1CCCN(Cc2cc3cccc(C)c3[nH]c2=O)CC1	2
FC(F)(F)c1ccc(C2=NCCO2)cc1	25
CN1CCC2(C=C(C(=O)N3CCCC3)c3ccccc32)CC1	-42
CC(C)c1cc(C2CCN(C(=O)c3nc(=O)[nH]c4ccccc34)CC2)[nH]n1	1
CCC(Sc1ccccc1N)c1ccc(-c2ccccc2F)cc1 (stereo unspecified)	?
O=C(CCC1N=C2c3ccccc3N=C(SCc3ccccc3F)N2C1=O)NCCc1ccccc1 (stereo unspecified)	3
CC(=O)Nc1ccccc1NC(=O)CN1CCC(O)(c2ccc(C)cn2)CC1	-5
CNS(=O)(=O)CCNC(=O)c1ccccc1Cc1ccc(Cl)cc1	95
Cc1ncsc1C(=O)N1CC2(CCCC2)c2cc(-c3ccc(C(N)=O)cc3)ccc21	-5
Cc1c(C(=O)NCCc2nc(-c3ccccc3)no2)oc2c(C)cccc12	-64
C/C=C/c1ccccc1[C@@H]1[C@@H](CO)N(C(C)=O)[C@H]1C#N	23
O=C1CC(c2ccsc2)c2cc3cn[nH]c3cc2N1 (stereo unspecified)	1

Later entries.
SMILES	Tgondii IFNg
COc1ccc(C(=O)N(Cc2ccc(SC)cc2)C2(C(=O)NCc3ccccc3)CCN(C(C)=O)CC2)cc1	-60
COc1ccccc1CNc1nc(-c2nnc(-c3cccc(Cl)c3)o2)nc2ccccc12	-62
CCCCC(=O)Nc1ccc(C)cc1NC(=O)c1cccc2nccnc12	1
CCc1ccc(NC(=O)c2c(O)c3cccnc3n(-c3ccc(OC)cc3)c2=O)cc1	-35
Cc1ccsc1C(=O)N1CCC2(CC1)CC(N(C)Cc1cccnc1)CO2 (stereo unspecified)	47
CCOc1ccc2nc(N3CCCC(C(=O)N4CCN(c5ccccc5OC)CC4)C3)nc(C)c2c1 (stereo unspecified)	-12
CCn1cc(CN2CCCC2c2cc(C(C)C)on2)c2cc(OC)ccc21 (stereo unspecified)	2
Cc1ccsc1-c1nc(CN2CCc3c(nc(CC4CC4)[nH]c3=O)C2)c(C)o1	11
CN(Cc1cc(-c2ccccc2)no1)Cc1coc2ccccc2c1=O	-21
Cc1nc(CNC(=O)c2ccc(F)c(-n3cccn3)c2)no1	16
Cc1ccc(Cn2c(=O)c3nn(C)cc3n3c(=O)n(Cc4nc(-c5cccc(C)c5)oc4C)nc23)cc1	14
c1cc2c(cc1N=C1SCC3CCCCN13)OCO2 (stereo unspecified)	304
COc1ncccc1CN1CCC(N(C)C)CC1C(=O)O (stereo unspecified)	2
CO[C@H](CN(C)S(=O)(=O)c1ccc(C)cc1)[C@H](C)CN(C(=O)Nc1ccccc1F)[C@@H](C)CO	28
CCOc1ccc(CNS(=O)(=O)c2ccc3[nH]c(=O)ccc3c2)cc1OC	-3
CCCS(=O)(=O)N1CCc2ncc(CN(C)C)n2CC1	-52
COc1ccc(-c2nc3c(n2O)CCc2nonc2-3)cc1	58
Cc1nc(C)n(CCCNC(=O)c2cccc(CC3CCNCC3)c2)n1	8
CN1C(Cn2cccn2)CC2CN(Cc3cccc(C#N)c3)CCC21 (stereo unspecified)	-5
CCS(=O)(=O)N1CCC2(CC1)CN(S(=O)(=O)c1ccc(C)cc1)[C@@H](CO)c1[nH]c3cc(OC)ccc3c12	21
Cn1cc(CN2CCC3(CC2)CC(c2ccccc2)C(=O)N3)cn1 (stereo unspecified)	-9
O=C(O)CS(=O)(=O)/C=C/c1ccccc1	-4
O=C(CCNS(=O)(=O)c1ccc(Cl)cc1)Nc1ccncc1	-24
CC(=O)N[C@@H]1[C@@H](O)[C@H](O)[C@@H](CO)O[C@@H]1O	3
O=C(c1cccc2ccnn12)N1CCC[C@H]1CN1CCCC1	-11

Sorted by count of non-hydrogen atoms (rising): 14 of the compounds above
SMILES	Tgondii IFNg
O=C(O)CS(=O)(=O)/C=C/c1ccccc1	-4
c1cc2c(cc1N=C1SCC3CCCCN13)OCO2 (stereo unspecified)	304
COc1ncccc1CN1CCC(N(C)C)CC1C(=O)O (stereo unspecified)	2
Cc1nc(CNC(=O)c2ccc(F)c(-n3cccn3)c2)no1	16
Cn1cc(CN2CCC3(CC2)CC(c2ccccc2)C(=O)N3)cn1 (stereo unspecified)	-9
CN1C(Cn2cccn2)CC2CN(Cc3cccc(C#N)c3)CCC21 (stereo unspecified)	-5
CN(Cc1cc(-c2ccccc2)no1)Cc1coc2ccccc2c1=O	-21
CCOc1ccc(CNS(=O)(=O)c2ccc3[nH]c(=O)ccc3c2)cc1OC	-3
Cc1ccsc1-c1nc(CN2CCc3c(nc(CC4CC4)[nH]c3=O)C2)c(C)o1	11
CCc1ccc(NC(=O)c2c(O)c3cccnc3n(-c3ccc(OC)cc3)c2=O)cc1	-35
COc1ccccc1CNc1nc(-c2nnc(-c3cccc(Cl)c3)o2)nc2ccccc12	-62
CO[C@H](CN(C)S(=O)(=O)c1ccc(C)cc1)[C@H](C)CN(C(=O)Nc1ccccc1F)[C@@H](C)CO	28
CCS(=O)(=O)N1CCC2(CC1)CN(S(=O)(=O)c1ccc(C)cc1)[C@@H](CO)c1[nH]c3cc(OC)ccc3c12	21
COc1ccc(C(=O)N(Cc2ccc(SC)cc2)C2(C(=O)NCc3ccccc3)CCN(C(C)=O)CC2)cc1	-60

The list goes on:
SMILES	Tgondii IFNg
O=C(NCc1ccccc1)c1ccc2nc(-c3ccsc3)c(-c3ccsc3)nc2c1	57
CCN(Cc1cccc(S(=O)(=O)O)c1)c1cccc(C(=C2C=CC(=[N+](CC)Cc3cccc(S(=O)(=O)O)c3)C=C2)c2ccc(O)cc2S(=O)(=O)O)c1	-42
COCC1CN(C(=O)c2c(C)noc2C)Cc2nnn(CC3CC3)c21 (stereo unspecified)	-31
NC(=S)N=Nc1ccc(NN=C(N)N)cc1	9
Cc1nc(-c2ccc(Cl)cc2)cs1	-1
C[C@@H]1CN([C@@H](C)CO)C(=O)c2c(c3ccccc3n2C)-c2ccccc2CO[C@H]1CN(C)C(=O)Nc1ccccc1C(F)(F)F	45
CN(Cc1ccccn1)C(=O)[C@@]12COC[C@@H]1CN(S(C)(=O)=O)C2	21
C=CCN(CCSc1ccccc1)C(=O)c1cccn1C	80
Cc1cnc(-c2nc(C3CCN(C(=O)c4cccc(F)c4)CC3)no2)cn1	-42
COc1ccc(C#Cc2ccc([C@H]3[C@H](CO)N4C(=O)CN(C(=O)NC(C)C)C[C@@H]34)cc2)cc1	-8
CCNC(=O)[C@@H]1C[C@H](N)CN1C(=O)c1ccc(C(C)C)n(C)c1=O	9
O=C(Nc1ccccc1)Nc1ccccc1SCCS(=O)(=O)c1ccc(Cl)cc1	-54
C[C@H](CO)N1C[C@H](C)[C@H](CN(C)C(=O)NC2CCCCC2)Oc2ccc(N(C)C)cc2CC1=O	21
CN(C)C(=O)N1C[C@@H]2C(=O)N(C)C3(CCN(S(=O)(=O)Cc4ccccc4)CC3)[C@H]2C1	58
Cc1ccc(Cl)cc1NC(=O)C(=O)NCCc1sc(-c2ccccc2)nc1C	-42
Cc1cccc(-c2ccc(C3[C@H]4CNC[C@@H]3N4C(=O)Nc3ccccc3Cl)cc2)c1 (stereo partly specified)	10&13
CCc1nnc(CNC(=O)c2ccc(Cn3nc(C)cc3C)cc2)s1	8
CS(=O)(=O)c1ccc(CN2CCCCC2c2cccc(F)c2)cc1 (stereo unspecified)	7
CC(C)C(=O)c1ccc(O)c(O)c1	19
CC1CC1C(=O)N1CCC2(CCC(=O)N(CC3CCOCC3)C2)CC1 (stereo unspecified)	-41
CCOC(=O)c1nn(CCc2ccc(OC)cc2)c2c1CN(C(=O)c1snnc1C)CC2	0
COc1cccc(-c2nc(Cn3nnc(C(=O)Nc4ccccc4C)c3C)c(C)o2)c1OC	49
O=C(CSc1nccc(-c2cccs2)n1)c1cc(-c2ccc(Cl)c(Cl)c2)no1	52
O=C(Cn1c(=O)cc(C(=O)N2CCCC2)c2ccccc21)Nc1ccccc1	7
CN1CCC(C)(CNC(=O)CCc2nc3ccccc3[nH]c2=O)C1 (stereo unspecified)	13

Continued:
SMILES	Tgondii IFNg
Cc1noc(C)c1NC(=O)NCCOc1ccccc1	2
Nc1ncccc1CN1CCCC(CCc2ccc(F)cc2)C1 (stereo unspecified)	0
CCCN1CCC(c2cc3c(ncn3C)c(N3CCCC3)n2)CC1	-17
Cc1cnc(C(=O)N2CCC(O)(CN(C)C)C2)cn1 (stereo unspecified)	1
CCC(COC(=O)Nc1ccc(Cl)c(Cl)c1)NC(=O)OC(C)C (stereo unspecified)	-31
CC(C)Cc1cc(CNC(=O)c2cc3n(n2)CCCN(C)C3)no1	-6
CO[C@H]1CC[C@@H]2CCOc3c(C#N)cccc3C(=O)N(C)C[C@@H](c3ccccc3)CC(=O)N(C)C[C@@H]1O2	-31
Cc1nc(CCNC(=O)[C@H]2CCCN2S(=O)(=O)c2ccc(C)c(C)c2)cs1	10
CCCc1cc(C(=O)NCc2ccc(-c3ccnc4ncnn34)cc2)no1	6
O=C(NCCN1CCN(c2ncccn2)CC1)C12CC3CC(CC(C3)C1)C2	11
CN(C)C(=O)N1Cc2cncn2CC(COc2ccc(C#N)cn2)C1 (stereo unspecified)	2
Cc1cn(CC(=O)N2CCC(CC(=O)O)CC2)nn1	-2
CCS(=O)(=O)N1CCC2(CC1)OC(=O)C(C)=C2C(=O)NCC1CCCO1 (stereo unspecified)	31
O=S(=O)(c1ccc2ccccc2c1)N1CCC(O)(c2cccc(C(F)(F)F)c2)CC1	-12
Cc1nc(OCC(=O)Nc2ccccc2C)c2ccccc2n1	-7
Cc1cc(C2CCCN2C(=O)Cn2nc(C(F)(F)F)c3c2CCCC3)no1 (stereo unspecified)	3
C[C@@H]1CN([C@H](C)CO)C(=O)c2ccccc2-c2ccccc2CO[C@@H]1CN(C)C(=O)Nc1ccc(-c2ccccc2)cc1	-74*

Only part of the results is shown; the hit share may differ from the screen's.
